From PubChem
T cruzi inh = blocks replication of Trypanosoma cruzi | 300,000 compounds, 1.4% hits | T. cruzi beta-gal in NIH3T3, luminescence, 90 h | inhibition, % (test concentration not listed);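 active = mean inhibition across valid replicates above about 55%, limit read from the data; inconclusive = mean below that limit but half or more replicates reach it; inactive = mean below it, under half of replicates reach it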;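 also: signal also drops with host cell toxicity which is not excluded here; 0% = plate median of DMSO wells and 100% = zero luminescence signal; higher percent means less beta-gal luminescence so fewer parasites; stock transfer was 50 nL into about 50 µL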
Calb FLC = C. albicans growth modulation with fluconazole. C. albicans CaCi-2 (fluconazole-resistant clinical isolate) + fluconazole, Alamar Blue growth, 48 h. growth inhibition, % (concentration not given with the values). 300,000 compounds, 0.57% hits. AID 1979;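 active = most replicates above 75%; inconclusive = exactly half above 75%; inactive = most below 75%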;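 also: all wells also contain fluconazole at 8 µg/ml as a sub-toxic cotreatment; 0% = median of DMSO wells and 100% = median of geldanamycin control wells; wells of about 8 µL received 7.5 nL stock; the first replicate is given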
Beta apoptosis = blocks beta cell apoptosis; INS-1E cytokine-induced death, ATP luminescence, 48 h; percent of positive-control rescue, neutral wells zero; protection from apoptosis, % (concentration not given with the values); 300,000 compounds, 0.8% hits; AID 435005;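 active = all replicates at 75% or more, or half of them and the mean; inconclusive = half reach 75% but not the mean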;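 also: 0% = cytokine-treated negative control wells and 100% = positive control rescue; higher means more ATP so stronger rescue from cytokine killing; wells of about 40 µL received 100 nL stock; the first replicate is given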
RanGTP-Impb inh = disruptors of Ran-importin-beta complex formation – biochemical, FRET, CFP-Ran, YFP-importin-beta, homogeneous, primary screen | cell-free CFP-Ran/YFP-importin-beta FRET ratio | inhibition, % (test concentration not listed) | 300,000 compounds, 1.1% hits | AID 2216;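 active = most replicates above 15%; inconclusive = exactly half above 15%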;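 also: 0% = DMSO wells and 100% = Ran loaded with GDP instead of GTP; wells of about 40 µL received 100 nL stock; the first replicate is given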
ALR inh = blocks human ALR sulfhydryl oxidase activity | P55789 | purified ALR, DTT oxidation, H2O2 HRP-luminol luminescence | inhibition, % (no concentration beside the values) | 290,000 compounds, 3.8% hits | AID 485317;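 active = mean and each replicate at 75% or more; inconclusive = only one of the two met; inactive = neither met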;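 also: stock transfer was 7.5 nL into about 7.5 µL; 0% = neutral wells and 100% = wells with inactivated enzyme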
Target sequence (P55789 whole entry, looked up): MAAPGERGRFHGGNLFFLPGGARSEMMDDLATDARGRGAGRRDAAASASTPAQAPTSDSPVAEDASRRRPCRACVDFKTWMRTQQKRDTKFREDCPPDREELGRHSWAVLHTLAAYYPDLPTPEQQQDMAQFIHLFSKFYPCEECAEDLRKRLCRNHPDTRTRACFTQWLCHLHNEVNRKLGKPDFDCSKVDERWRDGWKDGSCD
rRNA inh HTS = selective bacterial rRNA inhibition in E. coli | E. coli WT GFP vs humanized-ribosome RFP mutants, fluorescence, 24 h; stronger effect = lower value; DMSO median 0, no signal -100 | GFP signal change (wild-type ribosome), % (concentration not given with the values) | 350,000 compounds, 1.6% hits | AID 720706;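 active = significant combined selectivity score with lowered wild-type GFP, culture density cut under 30%, mutant RFP and density less affected; inactive = any of these conditions unmet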; also: one replicate is shown; some compounds called inactive have numbers as strong as hits
FGF22 binding = shifts melting point of recombinant human FGF22. recombinant FGF22 thermal shift, SYPRO orange fluorescence; percent of sucrose octasulfate shift, DMSO zero. calls only at 9.99 µM. 340,000 compounds, 1.5% hits;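 active = melting point raised past a set limit in the mean and every replicate; inconclusive = no clear call; three in four hits are not shown here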
Target sequence (Q9HCT0 whole entry, looked up): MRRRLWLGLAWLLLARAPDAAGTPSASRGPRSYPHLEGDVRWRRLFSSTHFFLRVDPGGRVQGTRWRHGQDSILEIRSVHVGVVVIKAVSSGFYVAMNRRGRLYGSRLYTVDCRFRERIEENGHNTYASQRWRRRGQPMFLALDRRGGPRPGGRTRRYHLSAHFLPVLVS
MLL AF4-AF9 inh = MLL-AF4/AF9 protein interaction inhibition; P42568; AlphaScreen, biotin-AF4 peptide binding to FLAG-AF9; inhibition, % at 10 µM; 350,000 compounds, 0.47% hits;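 active = every replicate reaching a set inhibition limit, whatever the replicate mean, cut at about 25% in these data; inconclusive = mean inhibition reaches that limit but some replicates miss it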;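 also: 0% = plate neutral control median and 100% = total signal loss; the record names both 10 and 1 µM as test concentration; the first replicate is given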
Target sequence (P42568 whole entry, looked up): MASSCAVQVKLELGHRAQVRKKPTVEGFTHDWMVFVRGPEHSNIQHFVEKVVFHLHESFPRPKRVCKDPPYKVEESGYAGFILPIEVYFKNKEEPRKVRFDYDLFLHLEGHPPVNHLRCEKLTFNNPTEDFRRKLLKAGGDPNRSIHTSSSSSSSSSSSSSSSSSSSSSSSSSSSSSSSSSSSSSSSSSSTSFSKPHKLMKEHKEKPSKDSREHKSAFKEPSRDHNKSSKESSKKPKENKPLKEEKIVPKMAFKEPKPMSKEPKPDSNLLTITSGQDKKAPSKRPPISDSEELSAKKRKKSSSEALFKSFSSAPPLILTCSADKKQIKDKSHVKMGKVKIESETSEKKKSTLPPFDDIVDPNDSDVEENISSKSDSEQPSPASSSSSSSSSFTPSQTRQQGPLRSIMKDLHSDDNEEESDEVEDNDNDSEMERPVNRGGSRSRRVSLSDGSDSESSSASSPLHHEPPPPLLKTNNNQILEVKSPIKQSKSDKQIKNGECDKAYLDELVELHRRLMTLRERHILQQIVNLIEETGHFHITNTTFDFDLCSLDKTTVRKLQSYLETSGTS
rRNA inh HTS OD600 = recorded beside rRNA inh HTS, whose call it bears; OD600 change, %; measured here: OD600 growth;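 optical density of the mix in the first replicate; 0 = DMSO median and -100 = no signal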
rRNA inh HTS RFP = recorded beside rRNA inh HTS, whose call it bears; RFP signal change, %; measured here: RFP humanized mutant strains;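 first replicate; 0 = DMSO median and -100 = no signal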
* hit, by the source's call; i = inactive; ? = inconclusive; nt = no result given; & = joins results of further samples.

molecule	T cruzi inh	Calb FLC	Beta apoptosis	RanGTP-Impb inh	ALR inh	rRNA inh HTS	rRNA inh HTS OD600	rRNA inh HTS RFP	FGF22 binding	MLL AF4-AF9 inh
O=C(CNC(=O)c1ccc(-c2ccccc2)cc1)OCc1c(F)cccc1Cl	0	4	-6	-8.9	-9	-1	14	-5.4	i	-7.0
CC(=O)Nc1ccc(-c2csc(NC=C3C(=O)OC(C)(C)OC3=O)n2)cc1	-11	-1	5	0.5	98*	5	10	-0.9	i	-1.4
CC(=O)NC(=S)Nc1ccccc1N1CCCCC1	0	58	-5	-1.9	20	nt	nt	nt	nt	nt
O=C(CSc1nnc(CNC(=O)c2ccc(F)cc2)o1)Nc1ccc2c(c1)OCCO2	-6	-1	2	4.5	30	15	17	0.5	i	0.4
CCCOc1ccc(NC(=O)C(=O)NCCCn2ccnc2)cc1	-13	2	10	-0.3	-23	8	6	-2.7	i	0.6
Cc1cccc(NS(=O)(=O)c2cccc(C(=O)N3CCN(c4ccccn4)CC3)c2)c1	13	-1	9	1.1	-2	-29	-29	0.9	i	1.5
Cc1noc(NS(=O)(=O)c2ccc(NC(=O)C(C)(C)C)cc2)c1C	1	8	nt	-3.8	0	5	14	4.6	i	-2.2
N#C/C(=N\Nc1ccc(Cl)c(Cl)c1)C(=O)C1CC1	-13	-2	52	-3.8	19	-42	-44	-14	i	4.6
O=C(CC(NC(=O)c1ccccc1Cl)c1ccccc1)Nc1ccc2c(c1)OCO2 (centres undefined)	5	-19	-5	nt	0	nt	nt	nt	nt	nt
COc1cc2nc(CN3CCN(C(c4ccccc4)c4ccccc4)CC3)[nH]c(=O)c2cc1OC	-3	6	-1	1.4	1	nt	nt	nt	nt	nt
Cc1cccc(CCN2C(N(C)C)=NC[C@@H]2Cc2ccccc2)c1	nt	nt	-9	nt	-2	6	12	2.0	i	nt
COc1ccc(C)cc1NC(=O)CN(C)S(=O)(=O)c1ccc2c(c1)CCCN2C(C)=O	-9	29	2	-2.5	-2	-5	1	-1.5	i	-1.4
Cc1ccc(O)c(-c2cc(-c3cccc(Br)c3)n[nH]2)c1	6	99*	14	3.7	9	-51	-73	-14	i	0.3
Cc1ccc(-c2ccc(/C=N\NC(=O)C3C(=O)NCC3c3ccccc3)o2)cc1Cl (centres undefined)	10	10	-6	3.8	-9	nt	nt	nt	nt	nt
Cc1cc(C(=O)OCn2nnc3ccccc3c2=O)c(C)n1-c1ccccc1	35	1	38	3.6	-1	nt	nt	nt	nt	nt
Cc1ccccc1NC(=O)COc1coc(CN2CCN(c3ccccc3)CC2)cc1=O	6	0	nt	5.7	nt	9	8	2.6	i	-12
Cc1ccc(-c2nnn(CC(=O)N(c3ccccc3F)C(C(=O)NCC3CCCO3)c3c[nH]c4ccccc34)n2)cc1 (centres undefined)	41	24	0	-9.0	0	nt	nt	nt	nt	nt
O=C(Nc1ccc(Br)cc1Cl)Nn1cnnc1	-17	41	1	6.0	nt	nt	nt	nt	nt	nt
O=C(CCNC(=O)c1ccc([N+](=O)[O-])cc1)Nc1nccs1	12	0	0	?	-1	6	-2	-2.9	i	3.5
COc1ccc(C(=O)CSc2nnc(C3CC3)n2N)cc1	-6	4	1	-1.2	1	nt	nt	nt	nt	nt

Records listed so far marked active in ALR inh.
compound | RanGTP-Impb inh | ALR inh | rRNA inh HTS | rRNA inh HTS OD600 | rRNA inh HTS RFP | FGF22 binding | MLL AF4-AF9 inh
CC(=O)Nc1ccc(-c2csc(NC=C3C(=O)OC(C)(C)OC3=O)n2)cc1 | 0.5 | 98* | 5 | 10 | -0.9 | i | -1.4

Other results follow.
molecule	T cruzi inh	Calb FLC	Beta apoptosis	RanGTP-Impb inh	ALR inh	rRNA inh HTS	rRNA inh HTS OD600	rRNA inh HTS RFP	FGF22 binding	MLL AF4-AF9 inh
Cc1ccc(C2C(=O)N(C3CCC(C)CC3)CC(=O)N2C2CCCC2)cc1 (centres undefined)	6	-32	-2	5.8	-22	nt	nt	nt	nt	nt
O=C(NCc1ccco1)c1cc(-c2ccccc2)on1	20	-3	12	?	-2	nt	nt	nt	nt	nt
CCOC(=O)C1CCCN(CC(=O)Nc2c(C(=O)OC)[nH]c3ccc(Cl)cc23)C1 (centres undefined)	13	10	2	-1.8	-6	nt	nt	nt	nt	nt
CCOc1ccc(CNC(=O)c2ccco2)cc1	-12	-5	-4	1.1	17	nt	nt	nt	i	-6.8
CNCC[C@@H](Oc1ccc(C(F)(F)F)cc1)c1ccccc1	nt	nt	15	nt	-12	nt	nt	nt	i	1.7
C[C@H](CO)N1C[C@H](C)[C@@H](CN(C)C(=O)Nc2ccc(C(F)(F)F)cc2)Oc2ccc(NS(=O)(=O)c3ccc(F)cc3)cc2C1=O	nt	nt	-8	nt	2	-6&10	-10&6	-1.4&1.3	i	-3.0&0.4
O=C(CSc1ccc(Br)cc1)NC1CCS(=O)(=O)C1 (centres undefined)	11	-1	-4	1.7	nt	-1	1	-0.4	nt	-13
C[C@H](NC(=O)N1CCn2c1nc1ccccc12)C(=O)NCc1ccco1	-15	1	nt	0.2	2	7	11	0.5	i	-2.2
CC1(C(=O)O)C=CCN1C(=O)c1ccccc1 (centres undefined)	3	-1	8	19*	-9	-4	3	-2.7	i	nt
CCOc1ccc(CCNC(=O)C2=C(C)C(=O)OC23CCC(C)CC3)cc1OCC (centres undefined)	1	-12	7	-1.1	-2	nt	nt	nt	nt	nt
O=C(Nc1nncs1)C1CCCC1	-19	2	nt	1.4	-2	0	8	-6.2	i	nt
CCOCCCNC(=O)Cn1nc(-c2ccccc2)ccc1=O	-3	0	0	-1.9	-9	3	9	-0.3	i	51*
CC(=O)N1[C@H](Cc2ccccc2)C=C[C@]1(C)C(=O)NCCc1c[nH]c2ccccc12	0	9	-6	-2.3	99*	2	10	5.3	i	4.2
CC(C(=O)O)n1cc(Cl)cn1 (centres undefined)	-7	3	nt	0.0	-4	7	3	0.0	i	-0.1
O=C(OCC(=O)N1N=C(c2ccc(Cl)cc2)CC1c1ccco1)c1ccccc1O (centres undefined)	1	-3	0	-1.0	-15	nt	nt	nt	nt	nt
CCNC(=O)NC(=O)C(C)OC(=O)c1oc2ccc(OC)cc2c1C (centres undefined)	5	16	-3	nt	7	nt	nt	nt	nt	nt
O=S(=O)(c1ccc(N2CCCC2)nc1)N1CCCC1	1	5	1	3.5	0	2	-9	0.4	i	-0.1
O=C(Cn1cncn1)c1ccccc1Br	3	10	-7	2.3	nt	12	12	-1.7	i	-0.9
Cc1ccsc1-c1nc(C(N)=O)c2[nH]c(=O)n(-c3ccc(Cl)cc3)c2n1	-3	7	0	3.1	nt	10	15	-1.8	i	-2.3
O=C(O)c1cccc(Nc2c([N+](=O)[O-])c(=O)oc3ccccc23)c1	-6	-8	0	4.9	1	4	-1	-7.0	i	1.5

molecule	T cruzi inh	Calb FLC	Beta apoptosis	RanGTP-Impb inh	ALR inh	rRNA inh HTS	rRNA inh HTS OD600	rRNA inh HTS RFP	FGF22 binding	MLL AF4-AF9 inh
COc1ccc(-c2cc(C#N)nc(N3CCN(C)CC3)n2)cc1	66*	-39	-2	-0.7	-5	-3	4	-4.0	i	7.4
Cc1ccc(C2CC(=O)NC(SCC(=O)Nc3nccs3)=C2C#N)cc1 (centres undefined)	32	-9	-7	-3.5	14	nt	nt	nt	nt	nt
CCOC(=O)c1ccc(NC(=O)C2CCN(C(=O)c3ccc(OC)c(OC)c3)CC2)cc1	-7	3	7	1.0	-37	nt	nt	nt	nt	nt
CC(C)c1ccc(/C=N/n2c(-c3ccccc3)n[nH]c2=S)cc1	19	3	2	1.2	44	-4	0	2.8	i	-7.1
NC(=O)CSc1nnc(Cn2c(=O)sc3ccccc32)n1-c1ccccc1	6	3	-7	-4.6	-11	4	16	0.2	i	-3.2
Cc1onc(-c2c(Cl)cccc2Cl)c1C(=O)NCCc1ccncc1	-7	4	-6	0.8	-3	5	13	1.2	i	-2.2
CC(C)CCNC(=O)CN(CCN1CCOCC1)C(=O)Cn1nnc(-c2ccc(F)cc2)n1	4	-4	-6	2.4	-2	nt	nt	nt	nt	nt
O=[N+]([O-])c1ccc(/C=N/Nc2ccccn2)cc1	3	-8	-5	2.6	nt	-3	2	-1.5	i	4.1
COc1ccccc1N1CCN(C(=O)CSc2nnc(NC(=O)C3CCC3)s2)CC1	5	-2	4	-3.7	15	nt	nt	nt	nt	nt
COc1ccc(Nc2nc(N)nc(CSCCO)n2)cc1	-12	1	-4	-2.4	-6	nt	nt	nt	nt	nt
CCC(=O)NC(=S)Nc1ccc(S(=O)(=O)N2CCN(C)CC2)cc1	-2	-4	-2	-3.8	6	8	-2	0.9	i	4.1
Cc1ccc(C(c2sc3nc(C)nn3c2O)N2CCOCC2)cc1 (centres undefined)	-8	-4	nt	4.0	0	nt	nt	nt	nt	nt
CC12CCC(=O)N1C(C(=O)NNC(=O)c1ccccc1F)CS2 (centres undefined)	nt	nt	10	nt	15	10	4	1.1	i	-1.4
O=C(CCCN1C(=O)/C(=C/c2cccs2)SC1=S)Nc1ccc(O)cc1	-20	5	1	0.6	nt	-12	-6	0.3	i	1.7
CC(C)(C)c1ccc(/C=C/C(=O)NCCCn2ccnc2)cc1	-15	-4	20	-0.3	-1	-12	-12	0.7	i	11
O=C(Nc1sc2c(c1C(=O)O)CCCCC2)c1ccccc1F	-13	48	0	0.3	19	-29	-50	-5.8	i	-2.7
Cc1c(Cl)c([N+](=O)[O-])nn1CC(=O)Nc1c(C)n(C)n(-c2ccccc2)c1=O	17	-4	-2	6.1	-7	nt	nt	nt	nt	nt
Cc1ccc2[nH]c(=O)c(C(c3nnnn3CC3CCCO3)N3CCc4ccccc4C3)cc2c1 (centres undefined)	-3	?	0	?	-29	nt	nt	nt	nt	nt
O=C(COC(=O)c1ccccc1C(=O)c1ccc(Cl)c([N+](=O)[O-])c1)NC1CC1	63*	11	-10	2.2	nt	13	10	3.0	i	-0.3
Cc1cc(OC(=O)CNC(=O)OC(C)(C)C)c2c(C)cc(=O)oc2c1	-11	-3	8	-2.8	91*	nt	nt	nt	nt	-4.3
C=CCn1c(C)nnc1SCC(=O)Nc1nccs1	-6	nt	-2	nt	-4	16	2	-1.0	i	-0.1
O=c1[nH]c(-c2ccccc2)nnc1-c1ccccc1	-5	3	0	-2.8	-7	12	2	0.7	i	0.7
O=[N+]([O-])c1cccc(-c2nnc3n2CCCCC3)c1	0	0	-5	-0.5	-1	4	9	-4.3	i	-0.4

Quoted from the listing:
Entry of O=C(Nc1sc2c(c1C(=O)O)CCCCC2)c1ccccc1F in rRNA inh HTS OD600: -50
Entry of Cc1cc(OC(=O)CNC(=O)OC(C)(C)C)c2c(C)cc(=O)oc2c1 in RanGTP-Impb inh: -2.8

The list is partial; the hit share may differ from the screen's.
